Screens (PubChem)
HNF4A DNA FP: change in binding of human HNF4 alpha to DNA | AID 1224865 | activity change, % at 10 µM | HNF4a-FITC DNA binding, fluorescence polarization, 1 h | P41235 | 360,000 compounds, 0.3% hits; in the data active = activity change above about 30%, passing the limit was not always enough;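 note: controls were the assay level and a saturating level of protein; the project sought stronger binding though the title names inhibitors; some compounds called inactive have numbers as strong as hits; positive values seem to mean higher polarization but the record does not say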
Target sequence (P41235 whole entry, looked up): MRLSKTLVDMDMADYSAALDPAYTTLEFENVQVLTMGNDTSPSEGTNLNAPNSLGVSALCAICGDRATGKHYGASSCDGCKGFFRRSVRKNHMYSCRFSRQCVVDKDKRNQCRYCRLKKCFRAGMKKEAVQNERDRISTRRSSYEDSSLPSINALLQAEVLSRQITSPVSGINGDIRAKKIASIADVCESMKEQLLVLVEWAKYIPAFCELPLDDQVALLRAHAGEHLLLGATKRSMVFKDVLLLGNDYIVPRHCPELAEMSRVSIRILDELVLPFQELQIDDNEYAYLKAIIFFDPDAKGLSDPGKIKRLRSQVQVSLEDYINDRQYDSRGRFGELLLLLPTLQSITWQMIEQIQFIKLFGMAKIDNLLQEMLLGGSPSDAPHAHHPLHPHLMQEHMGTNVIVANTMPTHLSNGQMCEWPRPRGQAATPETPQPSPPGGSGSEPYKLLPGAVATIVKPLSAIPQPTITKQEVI
UCH37 DUB inh: blocks the human deubiquitinase UCH37; Q9Y5K5; purified proteasome/UCH37, Ub-AMC cleavage fluorescence; AID 588478; 330,000 compounds, 0.33% hits; inhibition, % (no concentration beside the values);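 active = mean of two replicates above 20%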;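 note: 0% = compound-free wells with enzyme and 100% = wells lacking proteasome; stock transfer was 100 nL into about 20 µL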
Target sequence (Q9Y5K5 whole entry, looked up): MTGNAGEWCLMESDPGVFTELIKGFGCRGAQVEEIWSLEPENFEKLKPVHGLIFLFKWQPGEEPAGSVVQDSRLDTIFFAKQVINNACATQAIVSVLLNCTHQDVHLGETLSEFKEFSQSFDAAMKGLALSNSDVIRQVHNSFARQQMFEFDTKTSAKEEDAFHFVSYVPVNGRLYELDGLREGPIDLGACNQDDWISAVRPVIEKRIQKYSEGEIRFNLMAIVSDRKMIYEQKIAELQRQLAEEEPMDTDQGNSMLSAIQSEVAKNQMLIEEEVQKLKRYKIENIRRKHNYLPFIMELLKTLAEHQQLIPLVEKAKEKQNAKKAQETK
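System: Proteasome-associated human UCH37 deubiquitinase; Input: 0.15 nM proteasome in added enzyme buffer; Also added: Ub-AMC substrate from 1 µM stock; Incubation: 30 min compound-proteasome preincubation then 25 min substrate reaction, room temperature; Detection: fluorescence, ex 355 nm, em 460 nm; Read-out: % inhibition of Ub-AMC cleavage fluorescence; Benchmarks: no-proteasome and no-compound wells.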
Beta2AR agonist: agonists of human beta-2 adrenergic receptor inducing internalization; P07550; Am2.2-beta2AR cells, FAP receptor internalization, flow cytometry; reference of the scale not given here; response, % (concentration not given with the values); 340,000 compounds, 0.43% hits;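 active = response above a set limit, near 3 SD of response in nonfluorescent compounds, cut at about 42% in these data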;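 note: stock transfer was 100 nL into about 11 µL; a reference agonist was the positive control; negative values mostly stem from fluorescent compounds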
Ecoli growth: blocks Escherichia coli growth; 330,000 compounds, 0.21% hits; OD600, 23 h; stronger effect = lower value; OD600 absorbance (test concentration not listed);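 active = OD600 absorbance below the run mean of sample wells minus 3.6 SD, in any replicate, cut at about 0.56 in these data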;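 note: stock transfer was 300 nL into about 60 µL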
FGF22 binding: binders of recombinant human FGF22 by thermal shift; SYPRO orange fluorescence; percent of sucrose octasulfate shift, DMSO zero; calls only at 9.99 µM; 340,000 compounds, 1.5% hits; AID 651658;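 active = melting point raised past a set limit in the mean and every replicate; three in four hits are not shown here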
Target sequence (Q9HCT0 whole entry, looked up): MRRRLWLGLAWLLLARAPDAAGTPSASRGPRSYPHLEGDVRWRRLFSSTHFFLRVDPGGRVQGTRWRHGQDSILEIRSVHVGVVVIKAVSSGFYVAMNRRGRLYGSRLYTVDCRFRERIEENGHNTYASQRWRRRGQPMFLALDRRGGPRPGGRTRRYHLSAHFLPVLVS
ALR inh: blocks human ALR sulfhydryl oxidase activity; P55789; purified ALR, DTT oxidation, H2O2 HRP-luminol luminescence; 290,000 compounds, 3.8% hits; inhibition, % (no concentration beside the values);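 active = mean and each replicate at 75% or more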;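 note: stock transfer was 7.5 nL into about 7.5 µL; 0% = neutral wells and 100% = wells with inactivated enzyme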
Ecoli rRNA inh: inhibitors of bacterial rRNA selective over humanized ribosomes; E. coli WT GFP vs humanized-ribosome RFP mutants, fluorescence, 24 h; stronger effect = lower value; DMSO median 0, no signal -100; GFP signal change (wild-type ribosome), % (test concentration not listed); 350,000 compounds, 1.6% hits; AID 720706;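 active = significant combined selectivity score with lowered wild-type GFP, culture density cut under 30%, mutant RFP and density less affected; inactive = any of these conditions unmet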; note: one replicate is shown; some compounds called inactive have numbers as strong as hits
Ecoli rRNA inh OD600: further read-out of Ecoli rRNA inh, marked with its call; OD600 change, %; measured here: OD600 growth;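 optical density of the mix in the first replicate; 0 = DMSO median and -100 = no signal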
Ecoli rRNA inh RFP: recorded beside Ecoli rRNA inh, whose call it bears; RFP signal change, %; measured here: RFP humanized mutant strains;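 first replicate; 0 = DMSO median and -100 = no signal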
Active calls of the source: *; i = inactive; · = not tested or not shown; & = joins results of further samples.

SMILES	FGF22 binding	Beta2AR agonist	Ecoli rRNA inh	Ecoli growth	HNF4A DNA FP	UCH37 DUB inh	ALR inh	Ecoli rRNA inh RFP	Ecoli rRNA inh OD600
Cc1ccc(-c2csc(N3CCN(c4cc5c(cc4Cl)nc(C(C)N)n5CCCO)CC3)n2)cc1 (stereo unspecified)	i	-2	14	0.72	3.5	-1.0	4	23	12
O=C(COCCOCC(=O)N(c1ccccn1)C1CCCCC1)N(c1ccccn1)C1CCCCC1	·	3	·	0.77	-0.1	-6.1	-12	·	·
CCOc1ccccc1C(O)C1=CC(=O)c2ccccc2C1=O (stereo unspecified)	i	0	8	0.65	-12	14	·	7.5	11
Cc1nn(CC(=O)N2CCN(c3ccc(Cl)cc3)CC2)c(=O)c2cccn12	i	7	5	0.67	-5.5	1.7	53	-1.6	6
CCNc1c(NC(=O)COc2ccc(Cl)cc2)c(=O)oc2ccccc12	i	-6	-18	0.69	1.7	2.5	-6	-5.2	-6
COc1ccc(-c2cc3c(=O)n(CC(=O)Nc4ccc(Cl)cc4)ncn3n2)cc1	i	-2	18	0.68	-2.0	0.8	-21	-0.7	12
O=C(NC(Cc1ccccc1)c1ccc2c(c1)OCCCO2)c1ccccc1F (stereo unspecified)	·	10	·	0.73	2.6	1.9	-1	·	·
O=C(Nc1ccc(OC(=O)c2ccncc2)cc1)c1ccncc1	·	-2	·	0.7	-1.4	0.9	-19	·	·
COCCNc1nc2nonc2nc1N1C[C@H]2CC[C@H]1C2	i	3	11	·	4.3	·	-1	0.6	7
CC(NC(=O)c1ccccc1NC(=O)c1ccco1)c1ccccc1 (stereo unspecified)	i	-8	8	0.71	-1.0	-1.9	-3	1.5	0
COc1ccc(NC(=O)COC(=O)c2ccc(OCc3ccccc3Cl)c(OC)c2)c(OC)c1	·	-1	·	0.69	2.3	-1.2	1	·	·
O=C(NCCN1CCOCC1)C1CCC(=O)N1C1CCCCC1 (stereo unspecified)	·	-8	·	0.71	-3.4	4.3	·	·	·
CC1(C)CC(=S)Nc2ccccc2S1	·	-4	·	0.67	-3.8	2.4	-6	·	·
Cc1cc(=O)[nH]c(N/N=C/c2ccc(F)cc2)n1	i	-1	6	·	3.7	·	15	-2.1	8
COc1ccc(C(=O)COC(=O)C(O)c2ccccc2)c(OC)c1 (stereo unspecified)	i	2	-14	0.72	-2.3	3.3	-1	3.7	1
Cc1ccccc1S(=O)(=O)NC(=O)C1(C)CCN1C(=O)Cc1ccc(C(C)(C)C)cc1 (stereo unspecified)	i	·	-1	·	-3.0	·	·	6.4	3
COCC(=O)N1CCc2ccc(NC(=O)c3ccc(C(F)(F)F)cc3)cc2C1	i	6	10	·	-0.8	·	·	-0.4	-4
C=CCOc1ccc(C=Nc2ccc(OC)cc2)c(O)c1	i	-2	17	0.71	5.2	6.4	-8	-0.7	15
COC(=O)c1cc(C)sc1NC(=O)c1cccnc1	·	-9	·	0.7	2.4	-31	-8	·	·
Nc1cnn(C2OC(CO)C(O)C2O)c(=O)n1 (stereo unspecified)	i	0	10	·	0.9	·	-3	-12	5
Brc1ccc(CNc2cc3c(cc2Br)OCCO3)cc1	i	-1	-17	0.74	1.7	4.4	-1	-4.0	-16
CCCC(O)(c1ccc(Cl)cc1)C(CN1CCOCC1)c1ccccc1 (stereo unspecified)	i	11	-16	0.71	1.8	7.7	·	-12	-25
COc1ccc(-c2nc3nc(SC)nn3cc2C)cc1F	i	-6	18	0.71	0.1	-91	2	2.0	13
O=C(Nc1ccncc1)Nc1cc(Cl)ccc1Cl	i	-10	-21	0.6	1.0	0.4	-26	-8.4	-23
CC(=O)c1ccc(N2CCCCC2)c(F)c1	i	-6	-4	0.72	-2.8	-0.5	3	-14	-3
NC(=O)CC(NC(=O)Cc1ccc(Cl)cc1)c1ccc(N2CCN(c3ccccn3)CC2)c([N+](=O)[O-])c1 (stereo unspecified)	i	25	12	0.69	4.1	3.0	-17	-2.5	14
COc1ccc(OC)c(CNC(=O)Cc2c(C(=O)O)[nH]c3ccccc23)c1	·	-3	·	0.74	3.6	4.7	-10	·	·
Cc1cc(C)n(-c2nc3ccccc3nc2N2CCN(C(=O)c3ccccc3)CC2)n1	·	-11	·	0.76	-1.2	-0.5	5	·	·
CCc1nnc(NC(=O)CSc2nnc(-c3ccncc3)n2C)s1	·	12	·	0.7	-3.0	1.7	·	·	·
CC1CCCC(C)N1C(=O)C1CCCCC1 (stereo unspecified)	i	-6	·	0.72	-0.3	5.4	-29	·	·

Individual results from the list.
`NC(=O)CC(NC(=O)Cc1ccc(Cl)cc1)c1ccc(N2CCN(c3ccccn3)CC2)c([N+](=O)[O-])c1` (stereo unspecified) in Ecoli rRNA inh → 12
`COc1ccc(OC)c(CNC(=O)Cc2c(C(=O)O)[nH]c3ccccc23)c1` in ALR inh → -10
`CC(=O)c1ccc(N2CCCCC2)c(F)c1` in Ecoli rRNA inh OD600 → -3

Next records.
SMILES	FGF22 binding	Beta2AR agonist	Ecoli rRNA inh	Ecoli growth	HNF4A DNA FP	UCH37 DUB inh	ALR inh	Ecoli rRNA inh RFP	Ecoli rRNA inh OD600
CC1ON=C(c2cccc3ccccc23)N(C)C1=O (stereo unspecified)	i	·	3	·	0.7	·	·	-5.3	16
COc1ccc(OC)c(/C=N/NC(=O)CCc2n[nH]c(=O)[nH]c2=O)c1	i	17	20	·	-1.8	·	-13	0.4	20
CCOC(=O)c1csc(NC(=O)CSc2nnnn2-c2ccc3c(c2)OCCO3)n1	·	6	·	0.7	1.9	3.8	1	·	·
Cc1nc2ccccc2cc1C(=O)Nc1ccccc1Cl	i	1	8	0.71	-0.3	3.8	27	0.3	-15
CN(Cc1cn[nH]c1-c1cc2ccccc2o1)CC1CCOCC1	i	-8	15	0.69	1.7	5.6	·	-8.1	7
CN(Cc1nc2ccc(F)cc2[nH]1)C(=O)C1CCC(=O)N(C2CC2)C1 (stereo unspecified)	i	-3	9	0.74	0.0	2.6	-1	-1.0	4
CCCNC(=O)c1ccc2c(c1)S(=O)(=O)c1ccccc1C2=O	i	0	-9	0.69	0.8	1.3	-2	0.3	-18
CCN(CC)S(=O)(=O)c1ccc(C(=O)NCCN(C)C)cc1	i	3	10	0.7	0.3	2.5	-23	4.3	13
Cc1occc1-c1nnc(SCC(=O)NCc2cccs2)n1-c1ccc(F)cc1	·	-11	·	0.7	-0.8	5.8	-1	·	·
CCCCCCOc1ccc(OCC(O)CN2C(=O)NC(C)(C)C2=O)cc1 (stereo unspecified)	i	3	-3	0.71	-0.8	-1.3	-6	9.0	14
COc1ccc(CC(=O)OC(C)C(=O)NCc2ccc3c(c2)OCO3)cc1OC (stereo unspecified)	i	4	7	·	-1.9	·	-2	0.0	4
CCCNC(=O)N(C)C[C@@H]1Oc2ncc(-c3ccncc3)cc2C(=O)N([C@H](C)CO)C[C@@H]1C	i	·	21&2	·	0.9	·	·	1.5&-1.1	12&-5
CS(=O)(=O)N(CC(=O)Nc1ccccc1C(=O)N1CCCC1)c1ccccc1Br	i	4	8	0.73	-2.0	2.7	·	3.1	2
COc1ccccc1CCc1nnc(N)s1	i	5	2	0.69	5.5	-0.2	-1	-3.3	-4
Cc1ccc(C(C)C)c2c1C(c1ccc3c(c1)OCO3)CC(=O)O2 (stereo unspecified)	i	-6	-32	0.68	-3.0	2.7	·	-7.1	-29
CCOc1ccccc1CN1C(=O)c2ccccc2C1C(=O)NCC1CCCO1 (stereo unspecified)	·	4	·	0.77	1.0	-0.1	-3	·	·
COc1ccc(C(C)=O)cc1COc1ccc(F)cc1	i	-13	-28	0.65	4.1	2.3	-1	-5.3	-37
Cc1ccc(N2CC(C(=O)NC3=NCCS3)CC2=O)cc1C (stereo unspecified)	·	18	·	0.72	2.4	0.1	12	·	·
CC1CCCN(CCCNC(=O)c2nn(C)c3c2CSc2ccccc2-3)C1 (stereo unspecified)	i	-6	12	0.7	2.3	1.1	0	5.6	8
O=C(CSc1nnc2ccc(-c3cccnc3)nn12)Nc1ccc(F)cc1F	i	-5	12	0.71	4.7	-0.2	-6	-1.8	8
Cc1ccc(S(=O)(=O)NCC(=O)N(CC(=O)NCc2ccco2)Cc2ccccc2)cc1	i	-1	5	0.67	-1.6	2.0	-9	-0.8	7
ClCc1c2ccccc2cc2ccccc12	i	11	·	0.69	-1.3	-3.0	-14	·	·
CCN(CC)c1nc(N)nc(N(c2ccccc2)c2ccccc2)n1	i	-3	-3	0.73	1.6	3.6	8	3.0	-8
N#CCSc1ccccc1NC(=O)COC(=O)C1CCN(C(=O)c2ccc(Cl)cc2)CC1	i	·	5	·	0.5	·	·	-3.0	12
Cc1ccc(OCCNC(=O)CNC(=O)c2ccc3c(c2)OCO3)cc1	·	-7	3	·	0.9	·	-4	2.6	0
Cc1ccc(-c2nc(CS(=O)CC(=O)N3CCN(c4ccccc4)CC3)c(C)o2)cc1 (stereo unspecified)	i	-13	-3	0.66	-2.7	3.0	98*	1.3	-26
Clc1ccc(SCCCCN2CCOCC2)cc1	·	0	·	0.63	2.5	1.4	-40	·	·
N#Cc1ccc(OCC(=O)OCC(=O)NC2CC2)cc1	i	0	7	0.72	0.8	4.0	12	-2.9	12
CSCC[C@H](NC(=O)C1CCN(S(=O)(=O)c2ccc(C)cc2)CC1)C(=O)NC1CCS(=O)(=O)C1 (stereo partly specified)	·	2	·	0.68	-3.8	3.2	7	·	·
O=C(c1cc(-c2ccc(Br)cc2)nc2ccccc12)N1CCC1	i	0	-25*	0.71	8.7	-3.4	-1	-2.4*	-19*
O=C(CNc1cccc(Br)c1)Nc1ccc(S(=O)(=O)N2CCCCC2)cc1	i	·	-6	·	-1.2	·	·	15	-27
Cc1ccc(CNC(=O)C(CC(C)C)OC(=O)c2ccco2)cc1 (stereo unspecified)	i	7	-1	0.66	0.1	1.9	-1	1.4	0
Nc1nc(-c2ccc(Oc3ccccc3)cc2)cs1	i	1	8	0.63	-2.9	3.2	99*	6.5	6
CC(C(=O)N1CCN(Cc2ccc3c(c2)OCO3)CC1)n1cc([N+](=O)[O-])cn1 (stereo unspecified)	i	0	-18	0.69	-1.6	2.1	-4	-6.8	-24
O=C(Nc1ccc2c(c1)OCCO2)c1ccc(S(=O)(=O)N2CCCCC2)cc1	·	2	-32*	0.63	-11	1.7	-10	-7.1*	-26*
CSc1ccc(Cl)c(C(=O)Nc2nccs2)c1	i	-3	-3	0.67	1.7	4.1	15	1.2	4
CCOC(=O)Cn1nc(/C=C/c2ccc(OC)cc2)ccc1=O	·	13	·	0.72	-2.9	0.2	-10	·	·
Fc1ccc(OCc2nnc(-c3ccccc3Br)o2)c(Cl)c1	i	-1	-9	0.69	4.4	0.5	-1	5.0	-9
Cc1noc(C)c1C(=O)OCC(=O)Nc1ccccc1SCC#N	i	7	11	0.68	0.6	1.5	-6	0.1	13
NC(=O)c1[nH]cnc1N	i	-1&-1	24	0.61&0.7	1.6&-1.8	1.0&0.0	-1&-5	4.1	20
COc1ccc(N2CCN(CC(=O)NC(=O)NCc3ccco3)CC2)cc1	·	5	·	0.69	-3.0	0.9	64	·	·

A portion of the library; count on the stated rates, not on these rows.
